From PubChem
GLA inh pH 4.5: blocks human alpha-galactosidase A at pH 4.5; P06280; purified enzyme, 4-MU-alpha-Gal fluorescence, pH 4.5; activity change, negative = inhibition, % at 105 µM; 230,000 tested, under 10 active; inconclusive = small, poorly fitted or top-dose-only inhibition, or a rising curve; inactive = flat fitted curve, though single readings scatter; no compound was filed as active;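 also: 0% = full activity with enzyme and -100% = basal without enzyme; dose as in the result columns while the protocol names 77 µM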
Target sequence (P06280 whole entry, looked up): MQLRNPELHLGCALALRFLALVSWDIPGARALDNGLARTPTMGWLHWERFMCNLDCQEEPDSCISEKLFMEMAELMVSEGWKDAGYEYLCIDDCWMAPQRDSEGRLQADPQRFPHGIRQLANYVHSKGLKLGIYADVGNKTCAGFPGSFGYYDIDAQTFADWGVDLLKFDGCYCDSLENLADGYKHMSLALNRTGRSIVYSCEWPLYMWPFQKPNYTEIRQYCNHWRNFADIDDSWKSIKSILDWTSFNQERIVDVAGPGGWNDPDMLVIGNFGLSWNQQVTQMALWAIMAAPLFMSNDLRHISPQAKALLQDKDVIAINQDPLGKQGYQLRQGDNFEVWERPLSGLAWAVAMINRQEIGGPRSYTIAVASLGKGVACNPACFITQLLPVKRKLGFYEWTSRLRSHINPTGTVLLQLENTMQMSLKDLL
miR-21 reporter: raises the signal of a miR-21 reporter. HeLa miR-21 FLuc reporter, luciferase, 48 h. Potency, µM (series often up to 38.3 µM), for inactives: at the top dose reporter change, positive = more light. AID 2288. 340,000 tested, under 10 active; active = well fitted rising curve with a large enough effect; inconclusive = small, poorly fitted or top-dose-only effect; inactive = no such curve, though single readings can be large or run the other way;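 also: % of control where 0% means no effect; miR-21 action dims this reporter so a rising signal means less miR-21 action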
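HeLa miR-21-FLuc reporter line, endogenous miR-21; 2000 cells/well in DMEM/10% FBS; compound titration up to ~40uM final, 48 h, 37 degree Celsius; luciferase detection reagent, 15 min lysis, CCD luminescence.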
Rango complex inh: inhibitors of Rango-importin beta complex formation | 340,000 compounds, 0.031% hits | Potency, µM (titrated, usually from 92.2 µM), inactives show top-dose inhibition of complex formation | Q14974 | Rango CFP/YFP FRET sensor + importin beta, 45 min; active = rising FRET ratio curve, often small or poorly fitted; inconclusive = mostly compound fluorescence or quenching in the first reads; inactive = flat curves in all reads;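 also: potency is read from the fitted curve at half-maximal effect; 0% = DMSO wells and 100% = buffer wells lacking importin beta; nearly all actives have a fitted effect of over 15% in size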
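FRET biosensor Rango (snurportin 1 IBB between N-terminal EYFP and C-terminal Cerulean), 50 nM in PBS/1 mM DTT/0.02% Tween-20/0.1% BSA, preincubated 5 min RT with compound; 0.125 microM importin beta added, 45 min RT, CFP/YFP FRET ratio read.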
Rango release inh: inhibition of RanGTP-driven Rango-importin beta dissociation | O95149+P62826 | Biochemical FRET Rango-importin beta, RanGTP-induced dissociation | Potency, µM (highest dose often 46.1 µM), for inactives: at the highest dose activity change, negative = inhibition | 340,000 compounds, 0.071% hits; active means falling FRET ratio curve, often poorly fitted, with flat reads before Ran was added; inconclusive means other falling curves, or compound fluorescence or quenching; inactive means flat or rising ratio curve;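 also: potency is read from the fitted curve at half-maximal effect; % of control where 0% means no effect; nearly all actives have a fitted effect of over 45% in size; -100% = wells without RanGTP and RCC1; the record marks most hits as doubtful in a second field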
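Rango (0.1 uM)–importin beta (0.25 uM) complex; RanGTP-RCC1 trigger; 45 min RT; CFP/YFP FRET read.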
Numbers without * were called inactive; ? = inconclusive; . = not tested or not shown; & = joins results of further samples. Only part of the results is shown (hit frequency here may not be typical).

Rango release inh	GLA inh pH 4.5	miR-21 reporter	Rango complex inh	SMILES
-24%	.	-3%	?	CC(=O)COc1c(-c2ccco2)oc2ccccc2c1=O
1%	2	0%	1.6%	O=C(O)C1CCCN(S(=O)(=O)c2ccc(Br)s2)C1 (stereo unspecified)
9%	-5	-31%	-2.3%	COc1ccc(/C=C/C(=O)Nc2ccccc2C(=O)N2CCCC2)cc1
-4%	.	-6%	-2.5%	CC(=O)NC1C(OCCOc2ccc(Cl)cc2Cl)OC(COC(C)=O)C(OC(C)=O)C1OC(C)=O (stereo unspecified)
2%	-3	-3%	0.0%	COc1ccc(OC)c(NC(=O)Cc2coc3ccc4ccccc4c23)c1
0%	.	0%	-0.3%	Cc1ccc(S(=O)(=O)NCCC(=O)NC2CC2)cc1
0%	-15	-11%	0.3%	Cc1ccc(N2C(=O)c3n[nH]c(C)c3C2c2ccccn2)cc1 (stereo unspecified)
-9%	1	-9%&-7%	-0.4%	COc1ccc(S(=O)(=O)Nc2ccc(O)c(Sc3nc4ccccc4s3)c2)cc1
-22%	.	.	-6.3%	CON=C(C(=O)NC1C(=O)N2C(C(=O)O)=C(CSc3nc(=O)c(=O)[nH]n3C)CSC12)c1csc(N)n1 (stereo unspecified)
6%	.	-5%	-2.0%	COc1ccc(CN2C(=O)c3ccc(C(=O)O)cc3C2=O)cc1
-5%	.	.	-6.7%	COc1ccc(CN2C(=O)C(CC(C)C)Nc3ncnc(N4CCOCC4)c32)cc1 (stereo unspecified)
7%	.	1%	0.0%	COc1ccc(CN2CCNC(=O)C2CC(=O)N(C)Cc2ccno2)c(F)c1 (stereo unspecified)
-8%	0	-2%	7.2%	CC(=O)NC(NC(=S)Nc1ccccc1Br)C(Cl)(Cl)Cl (stereo unspecified)
-7%	1	-3%	-1.5%	CCOC(=O)N/N=C(\C)c1ccccc1OC(F)F
1%	7	0%	0.4%	O=C(NCCCN1CCCC1=O)c1ccc(Cl)c(NS(=O)(=O)c2ccc(F)cc2)c1

2 compounds drawn at random from those above:
Rango release inh	GLA inh pH 4.5	miR-21 reporter	Rango complex inh	SMILES
1%	7	0%	0.4%	O=C(NCCCN1CCCC1=O)c1ccc(Cl)c(NS(=O)(=O)c2ccc(F)cc2)c1
0%	-15	-11%	0.3%	Cc1ccc(N2C(=O)c3n[nH]c(C)c3C2c2ccccn2)cc1 (stereo unspecified)

Quoted from the listing.
miR-21 reporter, O=C(NCCCN1CCCC1=O)c1ccc(Cl)c(NS(=O)(=O)c2ccc(F)cc2)c1 : 0%
Rango release inh, COc1ccc(S(=O)(=O)Nc2ccc(O)c(Sc3nc4ccccc4s3)c2)cc1 : -9%
GLA inh pH 4.5, COc1ccc(/C=C/C(=O)Nc2ccccc2C(=O)N2CCCC2)cc1 : -5
miR-21 reporter, CC(=O)NC1C(OCCOc2ccc(Cl)cc2Cl)OC(COC(C)=O)C(OC(C)=O)C1OC(C)=O (stereo unspecified) : -6%
Rango complex inh, CC(=O)NC(NC(=S)Nc1ccccc1Br)C(Cl)(Cl)Cl (stereo unspecified) : 7.2%
Rango release inh, COc1ccc(CN2CCNC(=O)C2CC(=O)N(C)Cc2ccno2)c(F)c1 (stereo unspecified) : 7%
miR-21 reporter, COc1ccc(CN2C(=O)c3ccc(C(=O)O)cc3C2=O)cc1 : -5%

The list continues:
Rango release inh	GLA inh pH 4.5	miR-21 reporter	Rango complex inh	SMILES
9%	-8	1%	-4.0%	S=c1[nH]nc(-c2cccc(Cl)c2)n1CCN1CCCCC1
2%	0	3%	0.9%	C/C(=N\NC(=O)c1ccncc1)c1cc2ccccc2oc1=O
7%	.	.	2.5%	CCCCCCCCCCCCCCCC[N+](C)(C)CC
-15%	-15	28%	-2.9%	O=C(N/N=C/c1ccc([N+](=O)[O-])s1)c1ccccc1
-9%	-1	7%	-1.6%	CCC(C)(C)n1nnnc1C(c1cccs1)N1CCc2ccccc21 (stereo unspecified)
4%	0	4%	4.0%	CC(C)[C@H](NC(=O)NCc1ccc(Cl)cc1)C(=O)O
-22%	.	.	3.8%	COc1cc(/C=C/C(=O)OCC(=O)Nc2c(C)n(C)n(-c3ccccc3)c2=O)cc(OC)c1OC
-8%	1	-2%	4.2%	O=C(CNC(=O)c1cccs1)NCC(=O)OCc1ccc(Cl)cc1Cl
?	.	.	0.5%	CSc1cccc(N2CC(C(=O)Nc3ccccc3N3CCCC3)CC2=O)c1 (stereo unspecified)
1%	.	.	-5.6%	CC(=O)c1ccc(S(=O)(=O)N2CCC(C(=O)Nc3ncc(C)s3)CC2)cc1
-2%	-9	3%	-3.8%	CCOC(=O)N1CCN(CC(=O)Nc2cccc(Br)c2)CC1
-7%	0	20%	1.5%	O=C(Nc1ccc(Br)cn1)C1CCN(S(=O)(=O)c2cccs2)CC1
-1%	2	-5%	-1.2%	CCC(=O)Nc1cc(C(F)(F)F)ccc1N1CCOCC1
2%	.	.	0.9%	Cc1ccccc1OCC(=O)OCC(=O)NCc1ccccc1
6%	7	-25%	3.7%	Cc1cc(N(C)C)c(C#N)c(NCc2ccccc2)n1
-11%	0	-7%	2.6%	CC(Nc1ccccc1)c1cc(Cl)ccc1O (stereo unspecified)
1%	11	14%	-3.1%	Cc1c(C(=O)NN)sc(-c2ccccc2)c1C#N
1%	.	.	0.6%	CC(C)CC(c1nnnn1C(C)C)N1CCN(C(=O)c2ccco2)CC1 (stereo unspecified)
16%	.	.	1.9%	Cc1cc(C(=O)Nc2cc(S(C)(=O)=O)ccc2Cl)no1
1%	.	.	-1.2%	COc1cc(OC)cc(-c2cc3ccccc3c(=O)o2)c1
?	-4	14%	?	N#C/C(=C(/O)COC(=O)COc1ccc(Cl)cc1)c1nc2ccccc2[nH]1
-16%	-1	11%	2.2%	O=C1NC2(CCC3(CC2)OCCO3)NN1c1ccccc1
-3%	5	-9%	-0.2%	CCCn1nnc(NC(=O)c2cccc(OCc3ccccc3)c2)n1
14%	.	0%	0.3%	C[C@H](NC(=O)c1nc[nH]c1C(=O)NCc1ccccc1)C(=O)OCc1ccccc1
8%	.	-14%	0.4%	Cc1cccc(Nc2ncccc2C(=O)O)c1C
-4%	-15	-10%	-0.8%	Cc1noc(C)c1C(=O)Nc1sc(C)c(C)c1C#N
4%	1	-5%	-2.3%	O=C(/C=C/c1ccc(S(=O)(=O)NCc2ccco2)cc1)NCc1cccc(Cl)c1
1%	3	-7%	0.1%	CCNC(=O)CN1C(=O)NC(Cc2ccccc2)(Cc2ccccc2)C1=O
-23%	.	.	-5.4%	COC(=O)C1=C(C)N(Cc2ccccc2)C(=NCCc2c[nH]c3ccccc23)N[C@H]1c1cccc(F)c1
?	.	-2%	4.1%	CCC1CCCCN1CCCNC(=O)CN1C(=O)COc2ccc(S(=O)(=O)N3CCOCC3)cc21 (stereo unspecified)

Profiles from above. Order of values: Rango release inh	GLA inh pH 4.5	miR-21 reporter	Rango complex inh
COC(=O)C1=C(C)N(Cc2ccccc2)C(=NCCc2c[nH]c3ccccc23)N[C@H]1c1cccc(F)c1 in the list: -23%	.	.	-5.4%
Cc1cc(C(=O)Nc2cc(S(C)(=O)=O)ccc2Cl)no1 in the list: 16%	.	.	1.9%
CC(C)CC(c1nnnn1C(C)C)N1CCN(C(=O)c2ccco2)CC1 (stereo unspecified) in the list: 1%	.	.	0.6%
CCCn1nnc(NC(=O)c2cccc(OCc3ccccc3)c2)n1 in the list: -3%	5	-9%	-0.2%

The list goes on.
Rango release inh	GLA inh pH 4.5	miR-21 reporter	Rango complex inh	SMILES
-24%	.	.	0.7%	Cc1ccc(OCCNC(=O)c2ccccc2SCC(=O)N2CCCC2)cc1
?	-2	-8%	2.2%	Cn1cnc2c1c(=O)n(Cc1ccccc1)c(=O)n2C
-6%	1	0%	1.4%	O=C1c2ccncc2C(=O)N1C1CCCCC1
-10%	-7	0%	?	COC(=O)C1=C(C)Nc2ncnn2C1c1ccco1 (stereo unspecified)
8%	1	0%	4.5%	CC(=O)c1c(C(C)=O)c(C)n(-c2cccc3cccnc23)c1C
-9%	-8	-50%	-0.5%	O=C(Nc1nc2ccccc2s1)c1cnccn1
1%	2	-12%	-3.8%	COc1ccc(CCC(=O)Nc2cc([N+](=O)[O-])ccc2OC)cc1
2%	-1	13%	-3.2%	COc1cc(NC(=O)c2cc(-c3cccc(O)c3)on2)cc(OC)c1OC
-3%	.	.	-0.3%	CCOc1ccc(C(=O)NCC(=O)N2CC=C(c3ccccc3)CC2)cc1OCC
0%	.	.	-1.9%	CCOC(=O)[C@@H]1[C@H]2COc3ccccc3[C@@H]2N2C(=O)N(c3ccc(C)cc3)C(=O)[C@@]12C
-8%	3	-29%	1.3%	CSc1nc2ccc3nc(NC(=O)c4cccs4)sc3c2s1
3%	-20	-9%	-0.8%	COc1ccc(/C=N/NC(=O)c2nonc2C)cc1
-7%	1	13%	-0.6%	CCCOc1ccccc1C1CC(=O)NC(C)=C1C(=O)OCC(C)C (stereo unspecified)
-21%	.	.	0.5%	C=CCn1c(SCC(=O)c2c(N)n(C3CC3)c(=O)[nH]c2=O)nnc1-c1ccc(OC)cc1
-10%	-4	-8%	?	COc1cc(OC)c(OC)cc1/C=N/Nc1ncnc2c1[nH]c1ccc(C)cc12
19%	.	.	-11%	COCCN(Cc1nc2ccccc2c(=O)[nH]1)C(=O)COc1ccccc1-c1ccccc1
?	-7	2%	?	COC(=O)c1ccccc1N/C=C1\CCc2c(c(C)nn2-c2ccccn2)C1=O
17%	11	-3%	6.4%	Cc1ccc(SCc2nc3ccccc3n2CC(=O)Nc2c(C)cccc2C)cc1
-8%	3	-7%	-0.2%	O=C(CCn1ccc2ccccc21)Nc1ccc(N2CCOCC2)cc1
0%	2	-5%	-2.5%	Clc1cccc(N2CCN(c3ncnc4nc[nH]c34)CC2)c1
-17%	.	.	-0.2%	Cc1noc(C)c1S(=O)(=O)N(C)C[C@H]1Oc2c(NC(=O)Nc3ccc4c(c3)OCO4)cccc2C(=O)N([C@H](C)CO)C[C@@H]1C
-8%	1	14%	-0.1%	CC12CC(NC(=O)N1CCc1ccccc1)c1ccccc1O2 (stereo unspecified)
-16%	.	1%	-0.1%	CCNc1oc(-c2ccccc2F)nc1S(=O)(=O)c1ccccc1
